HPGD block = HPGD (human) dehydrogenase inhibition. hit rate 4.3% among 150,000. Potency, µM, for the others: at the highest dose activity change, negative = inhibition, actives largely listed as inhibitors. purified HPGD, NADH fluorescence kinetic, PGE2 substrate; active = well fitted inhibition curve with a large enough effect (not every such curve was filed as active); inconclusive = small, poorly fitted or top-dose-only effect, or another doubt; inactive = no such curve, though single readings can be large or run the other way;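 also: top concentration of the series not given in the record; plate controls included wells without enzyme; inactives centre near -10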
Target sequence (P15428 whole entry, looked up): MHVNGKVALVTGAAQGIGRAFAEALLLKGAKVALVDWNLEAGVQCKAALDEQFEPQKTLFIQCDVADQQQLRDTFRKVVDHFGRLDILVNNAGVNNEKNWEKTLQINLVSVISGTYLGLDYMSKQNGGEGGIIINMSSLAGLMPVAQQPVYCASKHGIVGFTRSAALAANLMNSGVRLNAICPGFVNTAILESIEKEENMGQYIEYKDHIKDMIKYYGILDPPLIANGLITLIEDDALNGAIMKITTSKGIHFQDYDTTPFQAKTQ
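NADH formation kinetics: reaction with 30 uM PGE2 and 1 mM NAD+ (final), 20 nM enzyme, Tris-HCl pH 8 with Tween 20, after 15 min compound preincubation at room temperature. Fluorescence change, last versus first of five reads.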
* = called active by the depositor; ? = inconclusive; & = joins results of further samples. % is scaled to controls: 0 for no effect and ±100 for the full control effect; potency is read from the fitted curve at half-maximal effect. An excerpt (hit frequency here may not be typical).

structure	HPGD block
CC(=O)OC/C=C(C)/C=C/C=C(C)/C=C/C1=C(C)CCCC1(C)C	-6%&-9%
Cc1nnc2n1N=CC=C(C(C)(C)C)S2	-6%
CCCCC(=O)NCCc1cc2ccc(OC)cc2[nH]c1=O	?
COc1cc(N2C(=O)c3ccccc3C2=O)c(Cl)cc1C(=O)OCC(=O)NCc1ccco1	-15%
COC(=O)N[C@H](c1ccccc1)C(C(C)=O)C(=O)OC (some centres undefined)	-2%
O=c1c2oc3ccccc3c2ncn1Cc1ccccc1Cl	-16%
Cc1ccc(S(=O)(=O)Nc2ccc(C(=O)OCC(=O)N(CCC#N)c3ccccc3)cc2)cc1C	-5%
CCCNC(=O)c1ccccc1C(=O)NCCC	-1%
O=C(Nc1ccc2nsnc2c1)c1ccc2c(c1)OCO2	-8%
Cc1ccccc1-c1nnn(CC(=O)N2CCN(S(=O)(=O)c3ccc(Cl)cc3)CC2)n1	-4%
O=C(c1sc2ccccc2c1Cl)N1CCN(c2ncccn2)CC1	-11%
Cc1cc(C)c2c(n1)nn1c(NCCOCCO)cc(C)nc21	?
Cc1ccc(S(=O)(=O)NC2CCCC2)cc1C	-23%
CCOc1ccccc1NC(=O)COn1nnc2ccccc21	-21%
CN(CC(=O)N1CCN(c2ccccn2)CC1)S(=O)(=O)c1ccc(Br)cc1	-5%
CC(NCc1ccc(N(C)C)cc1)C1CC2CCC1C2 (centres undefined)	-11%
Cc1ccc(S(=O)(=O)NC(=O)Nc2ccc(Cl)cn2)cc1	-11%
Nc1nnnn1/N=C/c1ccccc1C(F)(F)F	?
COc1cc(/C=N/NC(=O)c2cc(-c3ccccc3)n[nH]2)ccc1O	-29%
Cc1ccccc1N1CCN(C(=S)c2ccccc2)CC1	-8%
CN(C)c1cnn(-c2ccccc2)c(=O)c1Cl	-11%
O=C(Nc1ccc2nc(-c3cccnc3)[nH]c2c1)c1ccccc1F	-17%
CCc1cccc(NC(=O)CN(C)S(=O)(=O)c2cccc3nsnc23)c1	-11%
N#Cc1c(N)sc2c1CCN(CCc1ccccc1)C2	-30%
CC1=C(C(=O)OC2CCCCC2)C(c2ccc(C)o2)C2=C(CC(C)(C)CC2=O)N1 (centres undefined)	-14%
O=C(NC1CCCCC1)c1cc(Cl)nc2ccccc12	-10%
O=C(Nc1ccc2c(c1)OCCO2)C1CCN(C(=O)c2ccc(F)cc2)CC1	0%
O=C(NNC(=S)Nc1ccc(Cl)cc1Cl)C1CC1	-7%
CCN1CCN(CC(O)COCc2ccccc2)CC1 (centres undefined)	-6%
O=C(O)C(Cc1ccccc1-c1ccccc1)C(=O)O	-3%
CN1CCC[C@@H](CC2c3ccccc3Sc3ccccc32)C1	-2%
COCCNC(=O)Cn1cnc2c1c(=O)n(C)c(=O)n2C	-8%
CCC(O)CNc1nc(-n2nc(C)cc2C)nc2sc3c(c12)CC(C)(C)OC3 (centres undefined)	-13%
CN(C)C(=O)[C@]1(C)C[C@H]1[C@H](NC(=O)CNC(=O)[C@@H]1CCCN1C(=O)[C@]1(C)C[C@H]1[C@H](NC(=O)OCc1ccccc1)c1ccccc1)c1ccccc1	-12%
Cc1ccc2nc(C)cc(C(=O)OCC(=O)c3ccc(Cl)c([N+](=O)[O-])c3)c2c1	-19%
CCOC(=O)c1cnc2c(C#N)c(C)nn2c1C	-21%
O=C(O)c1cc2cc(Cl)ccc2[nH]1	-16%
Cc1cccc(OCCC(=O)NCC(c2ccccc2)N(C)C)c1 (centres undefined)	-4%
Nc1nc(SCC(=O)NCc2ccco2)[nH]c(=O)c1-c1ccccc1	-4%
CCS(=O)(=O)N1CCN(Cc2ccc([N+](=O)[O-])cc2)CC1	-4%
Cc1ccc(-n2ccc(=O)c(C(=O)O)n2)cc1	-8%
COc1ccc(C2(C(=O)NCCN3CCOCC3)CCOCC2)cc1	0%
CSC1=C(C#N)C(c2ccccc2C)C(C#N)=C(N)N1 (centres undefined)	-20%
CCC(=O)NCCc1cc2ccc(C)c(C)c2[nH]c1=O	-18%
O=S(=O)(NC1CCCCC1)c1ccc(S(=O)(=O)N2CCN3CCCC3C2)cc1 (centres undefined)	-10%

The final four compounds of the part before lead into the next:
structure	HPGD block
COc1ccc(C2(C(=O)NCCN3CCOCC3)CCOCC2)cc1	0%
CSC1=C(C#N)C(c2ccccc2C)C(C#N)=C(N)N1 (centres undefined)	-20%
CCC(=O)NCCc1cc2ccc(C)c(C)c2[nH]c1=O	-18%
O=S(=O)(NC1CCCCC1)c1ccc(S(=O)(=O)N2CCN3CCCC3C2)cc1 (centres undefined)	-10%
Cc1ccc(-c2nc(NCc3ccco3)c3ccccc3n2)cc1	-4%
CCN(CC)c1ccc(NC(=O)c2cccnc2)c(C)c1	-10%
CCN(CC)C(=O)CSc1nnc(-c2ccccc2)c(-c2ccccc2)n1	?
Fc1ccc(-c2nnc(CN3CCC(c4nc5ccccc5s4)CC3)o2)cc1	-19%
CCCCC1=NN(C(=O)c2cocc2C)C(O)(C(F)(F)F)C1 (centres undefined)	-3%
O=C(OCc1ccccn1)c1ccc(COc2ccccc2Cl)o1	?
Cc1sc2ncnc(N3CCC(C)CC3)c2c1C	22µM*
Cc1ccc2cc(CN(Cc3ccco3)C(=S)NCC3CCCO3)c(=O)[nH]c2c1C (centres undefined)	-9%
Cc1ccc(Cl)cc1N	-10%
O=C(Nc1ccc(S(=O)(=O)N2CCOCC2)cc1)c1cccs1	-13%
Clc1ccc(OCCn2ccnc2)c2ccccc12	-10%
Cc1ccc(SCc2ccc(C(=O)Nc3cccnc3)cc2)cc1	-7%
CCC(C)C(NC(=O)[C@@H](NC(=O)c1ccccc1F)C(C)C)C(=O)OC (some centres undefined)	-5%
O=C(NCc1cccnc1)c1cccc(F)c1	-8%
CC(C)NC(=O)N1CCN(c2ccncc2S(=O)(=O)N2CCOCC2)CC1	-15%
N#Cc1c(-c2ccco2)cc(-c2ccccn2)nc1N	?
Cc1ccc2c(c1)C=CC(C)(C)S2=O (centres undefined)	-8%
Cc1ccc(-c2csc3nnc(SCc4csc(C)n4)n23)cc1	-1%
CC(=O)Nc1nc(C)nc(-c2ccccc2OC(C)=O)n1	-2%
COc1ccccc1NC(=O)CN1CCN(CC(=O)Nc2ccc3c(c2)OCO3)CC1	-13%
CN(CC(=O)NC1CCCCC1)S(=O)(=O)c1cccc2cccnc12	-8%
CCCCCCn1c(C)nc2c(c1=O)c1nc3ccccc3nc1n2/N=C/c1ccco1	-20%
CCc1ccc(N2NC(=O)/C(=C/C=C/c3ccco3)C2=O)cc1	-18%
Cc1ccccc1NC(=O)C1(C)Cc2ccccc2C(=O)O1 (centres undefined)	-13%
Cc1ccc(NC(=O)Cn2cnc3sc(C(=O)NCCN(C)C)c(C)c3c2=O)cc1Cl	-3%
CCOCCCn1c(=N)c(C(N)=S)cc2c(=O)n3cccc(C)c3nc21	?
CCOc1ccc(NC(=O)c2cc3cc4ccc(OC)cc4nc3o2)cc1	?
C=CCSc1nnc(-c2cccnc2)o1	-8%
Cc1cccc(OCC(O)Cn2c(=N)n(CCN3CCCCC3)c3ccccc32)c1 (centres undefined)	-1%
CCOC(=O)C[n+]1c(C)sc2ccc(OC)cc21	20µM*
O=C1CC(c2cccs2)CC2=C1C(c1ccccc1)n1ncnc1N2 (centres undefined)	-20%
COc1ccc(CC(=O)OCc2cc3ccc(C)cc3[nH]c2=O)cc1	-11%
COc1ccc(-c2cc(C(=O)NCc3ccc(Cl)cc3)no2)cc1OC	-15%
Cc1ccc(CN2CCN(CC3CC4C=CC3C4)CC2)cc1 (centres undefined)	-10%
CCN(CC)C(=O)Cn1c(=O)n(-c2ccccc2)c(=O)c2c3c(sc21)CCC3	-18%
COc1ccc2oc(=O)c(C(=O)Nc3ccccc3-c3ccccc3)cc2c1	-23%
COc1cc2c(cc1OC)CN(c1nc(CN3CCOCC3)nc3sc4c(c13)CCCC4)CC2	-14%
Cc1cccc(/C=N/n2c(C)cc(C)c(C#N)c2=O)c1	-15%
O=C(CN1CCN(c2ccccn2)CC1)N1c2ccccc2Sc2ccc(C(F)(F)F)cc21	-15%
COc1ccc(N2CCN(C(=O)Cc3cccs3)CC2)cc1	-6%
COCCCNc1cc(C)nc2ccccc12	-8%
CC(C)(C)NC(=O)C(c1cccs1)N(CC1CCCO1)C(=O)c1ccc(-c2ccccc2)[nH]1 (centres undefined)	-25%
CCOC(=O)Cn1c(=O)c2c(nc3n2CCS3)n(C)c1=O	-3%
S=C(NCc1ccc2[nH]c3c(c2c1)CCCC3)Nc1ccccc1Cl	-13%
O=S1(=O)CCN2C(Cc3ccc(SC(F)F)cc3)=CSC2=N1	1%

Printed as active in HPGD block (from the list above):
structure	HPGD block
Cc1sc2ncnc(N3CCC(C)CC3)c2c1C	22µM*
CCOC(=O)C[n+]1c(C)sc2ccc(OC)cc21	20µM*

(cont.)
structure	HPGD block
CC(=O)c1c(Nc2ccc3c(c2)OCCO3)oc(C)cc1=O	-17%
COc1ccc(C)cc1NC(=O)CN(C)S(=O)(=O)c1cc(C)ccc1OC	0%
CN1C(=O)c2ccccc2Sc2ccc(NC(=O)NC3CC3)cc21	-19%
CC(=Nc1ccc2c(c1)nc(CO)n2C)C1=C(O)CC(C)(C)CC1=O	3.5µM*
CC[n+]1c(-c2ccccc2)csc1Nc1c(C)n(C)n(-c2ccccc2)c1=O	-11%
CCOc1ccc(NC(=O)C2CC(=O)N(C)C(=Nc3ccc4c(c3)OCO4)S2)cc1 (centres undefined)	-9%
Cc1ccc(-c2nc(SCC(N)=O)c(C#N)c3c2CCCC3)cc1	?
CC(=O)c1cc2c(cc1N/C(=N/S(=O)(=O)c1ccc(C)cc1)c1ccccc1)OCO2	?
Cc1ccc(SCc2cc(=O)n3[nH]c(C)nc3n2)cc1	-16%
O=C(NCc1ccco1)c1cnc2sccn2c1=O	?
CCOC(=O)NCc1ccc(S(=O)(=O)Nc2ccc(C)cc2)cc1	-1%
Cc1nc2sc(-c3ccccc3)cc2c(=O)[nH]1	-18%
c1ccc(CN2CC[C@@H](CNc3ncnc4ccccc34)C2)cc1	0%
BrC(=C\c1ccccc1)/C=N/N1CCN(c2ccccn2)CC1	-16%
O=C(Nc1cccnc1)/C(N=Nc1c(Cl)cccc1Cl)=C(\O)c1ccccc1	-1%
CCn1nc(C)c(/C=N/NC(=O)c2c[nH]c3ccccc23)c1C	-7%
CC(C)NC(=O)C(=O)NCCCOC(C)C	-3%
CSc1cnn(-c2ccccc2)c(=O)c1SC	-20%
O=C(NC(=S)NCc1ccccc1)c1ccccc1F	-25%
COc1cc(/C=C2/N=C(C3CCCCC3)OC2=O)cc(OC)c1OC	-24%
CCOc1ccc(-n2ccnc2SCC(=O)N2CCCc3ccccc32)cc1	-3%
CC(=O)OC(C)=O	-13%
Cc1ccc(OCC(=O)n2nc(C)cc2C)c(Br)c1	-7%
Cc1cc(C(=O)NC(=S)Nc2ccccc2N2CCCC2)ccc1[N+](=O)[O-]	-15%
O=C1CC(c2cccc(Cl)c2)C(n2cncn2)C(=O)C1C1NCCc2ccccc21 (centres undefined)	1%
CC(=O)NCCn1c(SCC(=O)c2ccccc2)nc2ccccc2c1=O	-7%
COc1ccccc1NS(=O)(=O)c1cccc(NC(=O)NC2CCCCC2)c1	-4%
Cn1c(=O)c2c(nc(SCc3cccnc3)n2Cc2ccccc2)n(C)c1=O	-22%
CN(C)c1nc(N(C)C)nc(N(C#N)CN2C(=O)c3ccccc3C2=O)n1	-6%
COc1ccc(C(=O)Cn2nnc(-c3ccccc3NC(=O)C3CC3)n2)cc1	-2%
CCOc1ccccc1NC(=O)c1ccccc1N(C)S(C)(=O)=O	-15%
COc1cc(NC(=O)c2ccccc2)c(OC)cc1NC(C)=O	4%
CCC(C)c1ccc(OCCCCN2CCOCC2)cc1 (centres undefined)	-7%
OC(COc1ccc2c(c1)CCC2)Cn1cnc2ccccc21 (centres undefined)	-18%
O=C(CCS(=O)(=O)c1ccc(Br)cc1)NCc1cccs1	-5%
CC(C)Cc1nc2sc3c(NCc4ccco4)ncnc3c2c2c1COC(C)(C)C2	?
CCc1cc(=O)oc2cc3occ(C)c3cc12	-9%
O=C(O)CCCC(=O)Nc1ccc(C(=O)N2CCCCC2)cc1	2.2µM*
Cc1c(NC(=O)c2ccc3c(c2)OCO3)cccc1-c1nc2ccccc2s1	-6%
CCc1nc2n[nH]c(N)c2c2c1CSC(C)(C)C2	-6%
CC(C)C[C@@H](CC(=O)N[C@@H](CCC(=O)O)CC(=O)O)NC(=O)[C@@H]1CNCC[C@H]1NC(=O)C[C@@H](NC(=O)C[C@H](Cc1ccccc1)NC(=O)[C@@H]1CNCC[C@H]1N)C(C)C	-12%
CC1CCc2c(sc3nc(SCC(=O)NCc4ccco4)nc(N)c23)C1 (centres undefined)	14µM*
Cc1c(C(=O)OCc2ccccc2)[nH]c2c1C(=O)CC(c1ccco1)C2 (centres undefined)	-28%
O=C(NC1CCCCC1)C(c1cc2c(cc1[N+](=O)[O-])OCO2)N1CCCCC1 (centres undefined)	?
Cc1cccc(COCC(Cc2ccccc2)N2CCN(C(=O)c3cccc(Cl)c3)CCC2=O)c1 (centres undefined)	-12%

High-throughput results deposited in PubChem by National Center for Advancing Translational Sciences (NCATS).
